BJeLR lethal – kills HRASV12-expressing BJeLR cells | AID 1554 | BJeLR (HRASV12) viability, CellTiter-Glo ATP luminescence, 48 h; reference of the scale not given here | 300,000 compounds, 0.17% hits | inhibition, % (test concentration not listed);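 active = replicate mean above 50%; inconclusive = above 50% but judged a plate artefact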;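 note: 50 nL library stock added to about 25 µL; numbers are from one replicate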
RN4220 kill – S. aureus RN4220 growth inhibition | OD600, 16 h | inhibition, % (no concentration beside the values) | 330,000 compounds, 0.33% hits | AID 1259311;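 active = z-score of -3 or lower and OD600 up to 0.18 on both plates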;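 note: plate controls were untreated cells for no effect and reference antibiotic for full effect; stock transfer was 100 nL into about 80 µL; one replicate is shown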
Autofluor counter – counter-screen for toxin protease inhibitors: compound fluorescence; compound autofluorescence counterscreen, microsphere flow cytometry; active compounds read high; fluorescence intensity (no concentration beside the values); 360,000 compounds, 3.1% hits; AID 624483;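 active = at least 3 SD above the mean of all compounds, about 16000 in these data; inconclusive = too few beads counted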;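 note: 100 nL of 1 mM stock went into each well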
Mtb hypoxia rep – Mtb hypoxia fluorescent reporter inhibition; M. tuberculosis hypoxia-regulated fluorescent reporter, fluorescence; fluorescence inhibition, % (test concentration not listed); 300,000 compounds, 0.1% hits; AID 1159583;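 active = 35 to 45% if threefold the growth effect, above 45% if 1.5-fold the growth effect; inactive = the rest, general growth blockers included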;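 note: wells of about 50 µL received 100 nL stock; 0% = vehicle wells and 100% = reference inhibitor wells; whole bacteria with a GFP reporter of the hypoxia response; strong numbers were not always called active; many hits fall short of the cut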
PrP 5UTR inh – suppresses PrP 5' UTR mRNA reporter expression | cell-based PrP 5' UTR mRNA reporter, plate reader | 340,000 compounds, 0.35% hits | inhibition, % (no concentration beside the values);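 active = every replicate at 50% or more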;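 note: 0 = median of the neutral control wells; tested in H4 reporter cells; numbers are from one replicate; inactives centre near -14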
Sa ugtP lethal – compounds lethal to S. aureus RN4220 ugtP deletion mutant | OD600 growth, 16 h; some inactives read as strong as hits | growth inhibition, % (no concentration beside the values) | 330,000 compounds, 0.54% hits;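 active = z-score under -3 and OD600 up to 0.15 on both plates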;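 note: plate controls were untreated wells for no effect and antibiotic for full effect; wells of about 80 µL received 100 nL stock; the first replicate is given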
Mtb hypoxia rep growth – also measured in Mtb hypoxia rep; calls as there; growth inhibition, %; measured here: M. tuberculosis growth (absorbance);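 0% = vehicle and 100% = reference antibiotic; read after six days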
* hit, by the source's call; u = inconclusive; x = not tested or not shown.

no.	molecule	BJeLR lethal	RN4220 kill	Autofluor counter	Mtb hypoxia rep	Mtb hypoxia rep growth	PrP 5UTR inh	Sa ugtP lethal
1	c1ccc(N2CCN(c3cnc4ccccc4n3)CC2)cc1	9	3.9	2849	12	18	-66	-2
2	S=C(NCc1ccncc1)NC1CCCCC1	-1	3.2	2538	1	10	-16	5
3	COc1cccc(NC(=O)C2CC2(c2cccc(OC)c2)c2cccc(OC)c2)c1 (stereo unspecified)	1	4.3	2642	6	2	-35	-9
4	O=C(Nc1ccc(Cc2ccncc2)cc1)c1ccco1	5	5.5	2677	2	5	-21	-1
5	C[C@@H](C(=O)N1CCN(C(=O)OC(C)(C)C)CC1)n1cc(CCCN=C(NC(=O)OC(C)(C)C)NC(=O)OC(C)(C)C)nn1	2	x	3217	x	x	-15	x
6	CCOC(=O)c1cnc(-n2cc(C)cn2)nc1NCc1ccc2c(c1)OCO2	-9	11	21542*	2	6	3	-5
7	CCOC(=O)c1cnn(-c2ncnc3sc(C)c(C)c23)c1N	-2	4.1	3844	x	x	-9	0
8	CCOc1cc(N2CCOCC2)c(OCC)cc1NS(=O)(=O)c1cc(NC(C)=O)ccc1OC	3	0.3	2870	15	-2	-14	-1
9	O=C(CN1C(=O)CSC1=O)NCc1ccccc1	-11	-0.7	4517	3	-3	0	4
10	O=C(C1CCN(S(=O)(=O)c2cnc[nH]2)CC1)N1CCn2c1nc1ccccc12	6	7.9	5454	5	6	-19	6
11	CC(=O)c1sc(-c2ccccc2)cc1N	0	4.7	x	10	-12	-25	-3
12	CCCC(=O)N1CCc2cc(OC)c(OC)cc2C1COc1ccccc1OC (stereo unspecified)	-6	-1.2	3714	-10	4	2	-8
13	Cc1c(O)c(S(=O)(=O)c2ccccc2)c(=O)n(-c2ccccc2)c1-c1ccccc1	2	22	1863	17	8	-24	11
14	COc1cc(/C=N/Nc2ccccc2[N+](=O)[O-])cc(OC)c1O	3	x	3453	x	x	-17	x
15	COc1ccc(N2CCN(C(=O)Cn3c(=O)c4cccn4c4cccnc43)CC2)cc1	-6	1.3	5754	8	17	7	-8
16	O=C(COc1ccc2ccc(=O)oc2c1)NCc1ccccn1	-8	5.6	5072	2	0	-3	4
17	CC(=O)Nc1sc(NN=Cc2ccc(O)cc2)nc1-c1cccs1	x	0.2	x	x	x	x	-6
18	CCN(C(=O)CCS(=O)(=O)c1ccc2c(c1)oc(=O)n2C)c1ccc(OC)cc1	-1	1.0	5230	13	0	-13	2
19	CC1=CCC(C(=O)O)C(C(=O)O)C1 (stereo unspecified)	6	3.7	22181*	9	6	0	-6
20	COc1ccc(CNC(=O)CCn2c(=O)oc3ccccc32)c(OC)c1	10	4.2	4537	-5	2	-1	2
21	CCC(=O)Nc1cccc2ccccc12	2	1.8	4487	10	15	-23	5
22	CC(C)(C)c1ccc(OCC(=O)NNC(=O)C2CCCO2)cc1 (stereo unspecified)	3	5.7	2559	11	4	-7	-6
23	CCOC(=O)c1cnc(SC2CC(=O)N(c3ccc(OC)c(OC)c3)C2=O)nc1N (stereo unspecified)	4	1.0	u	5	-10	-16	8
24	CC(=O)Oc1ccc([C@@H]2COc3c(ccc4c3C=CC(C)(C)O4)C2)c(OC(C)=O)c1	-1	0.3	5606	x	x	-41	14
25	CCOc1ccc(S(=O)(=O)N2CCCCC2)cc1NC(=O)Cc1ccccc1	x	-1.7	5439	5	2	-18	4
26	CCOc1ccc(-n2c(O)cc(=O)[nH]c2=O)cc1	-2	0.7	5483	-1	-2	-22	10
27	COC(=O)c1sccc1-c1ccc(/C=N/OC(=O)c2ccccc2)o1	-3	x	20465*	x	x	-14	x
28	Cc1nn(-c2ccccc2)c(=O)c2ccccc12	x	3.5	4528	6	5	-19	11
29	COc1ccc(/C=C/C(=O)NCCCc2ccccc2)cc1	-3	x	2032	x	x	-24	x
30	CCOC(=O)Cc1cc(-c2ccc(O)cc2)nc2ccc3ccccc3c12	2	-3.0	11020	9	8	-20	1
31	O=C(Nc1nc2ccccc2[nH]1)c1ccc(Cl)c(S(=O)(=O)N2CCCC2)c1	6	x	3225	x	x	-75	x
32	Cc1ccc(S(=O)(=O)Oc2ccccc2-c2ccccc2)cc1	x	5.1	3700	15	8	-6	13
33	Cc1ccc2cccc(SCC(=O)NCc3ccco3)c2n1	5	4.6	5801	6	-4	-24	-2
34	O=C(CN1C(=O)/C(=C\c2ccccc2Br)Oc2ccccc21)NCCCN1CCOCC1	-8	2.6	6465	-3	4	-11	0
35	Cc1ccc(Cn2c(C(C)Nc3nc(C)cs3)nc3cc(Cl)c(Cl)cc32)cc1 (stereo unspecified)	-8	-3.7	x	3	5	x	-33
36	O=C(N/N=C/c1cn(-c2ccccc2)nc1-c1cc2ccccc2o1)c1cccnc1	2	x	2607	x	x	-81	x
37	O=C(Nc1sc2c(c1CN1CCOCC1)CCC2)c1ccc(F)cc1	-11	4.2	10579	6	7	-18	1
38	Cc1cc(C)n(CCCNC(=O)c2ccc(S(=O)(=O)NCc3ccco3)cc2)n1	11	0.3	21580*	6	8	-10	0
39	CC1=NNC(=O)C1CC(=O)N/N=C/c1sccc1C (stereo unspecified)	-1	x	4611	x	x	-26	x
40	CSCCC(NC(=O)COc1ccccc1)C(=O)NC1CCC(C)CC1 (stereo unspecified)	1	x	6103	x	x	-14	x
41	C=CCN1C(=O)c2ccc(C(=O)NCC(c3ccccc3)N(C)C)cc2C1=O (stereo unspecified)	-2	-1.3	4292	-3	-5	-17	-7
42	CC(=NNC(=O)c1ccncc1)c1cccnc1	x	2.2	x	x	x	x	3
43	Cn1c(C(=O)N2CCC3(CC2)OCCO3)cc2c(=O)n(C)c3ccccc3c21	8	5.2	7797	4	8	-2	-1
44	Cc1ccc(C(=O)NCC(=O)OCc2nnc(-c3ccccc3)o2)cc1	1	5.8	3997	-1	-3	-27	10
45	CCCNCc1cc(OC)c(OCC(=O)NCCc2ccccc2)cc1Br	14	3.9	9472	-2	2	-10	0
46	O=C(CNC(=O)c1ccc(Br)o1)Nc1cccc(-c2cnc3ccccc3n2)c1	-7	2.6	2601	5	-4	-35	-22
47	Cc1ccc(C(C)C)c(OCC(=O)NNC(=O)C(C(C)C)N2C(=O)c3ccccc3C2=O)c1 (stereo unspecified)	5	6.1	2300	12	11	-9	12
48	O=C(CSc1nc2ccccc2nc1N1CCOCC1)Nc1ccccc1F	-5	-11	6011	4	15	-21	-12
49	COCCCN1C(=O)/C(=C\c2cccs2)C(C(=O)OC)=C1C	7	3.9	3761	-1	12	-5	17
50	CCOC(=O)c1c(NC(=O)c2ccc(Cl)cc2)csc1C	15	5.7	2320	13	11	-18	21

Record cards, from the list above. Order of screens: BJeLR lethal | RN4220 kill | Autofluor counter | Mtb hypoxia rep | Mtb hypoxia rep growth | PrP 5UTR inh | Sa ugtP lethal
Cc1ccc(S(=O)(=O)Oc2ccccc2-c2ccccc2)cc1 is entered as x | 5.1 | 3700 | 15 | 8 | -6 | 13
CCCNCc1cc(OC)c(OCC(=O)NCCc2ccccc2)cc1Br is entered as 14 | 3.9 | 9472 | -2 | 2 | -10 | 0
O=C(Nc1nc2ccccc2[nH]1)c1ccc(Cl)c(S(=O)(=O)N2CCCC2)c1 is entered as 6 | x | 3225 | x | x | -75 | x

Carrying on:
no.	molecule	BJeLR lethal	RN4220 kill	Autofluor counter	Mtb hypoxia rep	Mtb hypoxia rep growth	PrP 5UTR inh	Sa ugtP lethal
51	CC(=O)NCCC(=O)Nc1cc(S(=O)(=O)Nc2ccc(Cl)cc2)ccc1N1CCCC1	-2	2.1	3979	1	-13	-1	9
52	COc1ccccc1N1CC=C(c2cccc([N+](=O)[O-])c2)NC1=O	-4	2.0	5032	0	-5	-20	3
53	Cc1ccc(-c2csc3ncn(CC(=O)OC(C)C)c(=O)c23)cc1	1	0.8	3046	-1	6	-16	3
54	CCOC(=O)c1ccc(NC(=O)CSc2nnc(COc3ccccc3OC)n2C)cc1	-17	1.3	23622*	-1	11	0	-5
55	CCOC(=O)C1CCN(c2ncnc3c2oc2ccccc23)CC1	1	2.2	5650	4	5	-8	11
56	Nc1cnc(-c2ccccc2)nc1Cl	-13	2.3	8311	-12	7	-26	-4
57	CCOc1ccc(C2C(C(=O)c3ccco3)=C(O)C(=O)N2CCN2CCOCC2)cc1OCC (stereo unspecified)	-3	0.6	4461	-4	2	-30	0
58	Cc1ccc(C2C3=C(CCCC3=O)Nc3c2c(C)nn3-c2ccccn2)o1 (stereo unspecified)	3	1.8	x	13	-4	x	1
59	C[C@H](CO)N1C[C@H](C)[C@@H](CN(C)C(=O)Nc2ccccc2)Oc2c(NS(=O)(=O)c3ccccc3)cccc2C1=O	x	3.9	3973	-2	2	3	7
60	CCOc1ccc(C(=O)CCC(=O)NNC(=O)c2ccncc2)cc1	4	5.8	7015	x	x	-9	7
61	O=C(Cc1ccccc1)Nn1c(-c2ccccc2F)nc2ccccc2c1=O	-9	4.9	4572	8	8	-15	8
62	CC[C@]12c3[nH]c4ccccc4c3CCN1C(=O)C(CC(=O)NCCCn1ccnc1)C[C@@H]2C(=O)N1CCN(C(=O)c2ccco2)CC1 (stereo partly specified)	x	1.8	3953	4	6	-23	8
63	COc1cc(NC(=O)C2CCCN2S(=O)(=O)c2ccc3c(c2)CCC(=O)N3)cc(OC)c1 (stereo unspecified)	x	0.8	5891	x	x	-17	2
64	Cc1ccc(C)c(NC(=S)N(C)CCc2ccccn2)c1	-8	3.3	2606	-1	0	-20	-1
65	O=c1oc(-c2ccc([N+](=O)[O-])cc2)nc2ccccc12	0	6.3	4175	17	12	-12	3
66	C=CCC(=O)OCC(=O)Nc1ccc(Cl)cn1	3	2.3	2940	10	2	-20	1
67	CCC(Sc1nc(=O)cc(N)n1CCc1ccccc1)C(=O)Nc1cc(C)on1 (stereo unspecified)	0	-17	4295	-1	8	-4	-12
68	CN(C)c1nc(Oc2ccc(=O)n(C)n2)nc(N2CCOCC2)n1	-1	2.4	10533	3	13	-8	0
69	O=C1Nc2ccc(S(=O)(=O)N3CCCC3C(=O)O)c3cccc1c23 (stereo unspecified)	-6	2.8	4442	x	x	-1	11
70	O=C1OC(CN(Cc2ccccc2)Cc2ccccc2)CN1N=Cc1ccc([N+](=O)[O-])o1 (stereo unspecified)	x	80	2907	-1	1	0	100*
71	CCc1ccc(-n2c(=S)sc3c(=O)n(-c4ccccc4)c(SCC(=O)O)nc32)cc1	-6	4.9	3894	12	3	-12	18
72	COc1ccc(CN2CCC(CO)(Cc3cccc(C(F)(F)F)c3)CC2)cc1Cn1cccn1	-3	1.4	5000	2	-8	-10	8
73	CCOC(=O)c1nnn(CC(=O)N2N=C(c3ccc(Cl)cc3)CC2c2ccccc2)c1C(=O)OCC (stereo unspecified)	-1	4.1	4007	-1	5	6	-34
74	CN1CCCN(Cc2ccc(Cl)cc2Cl)CC1	8	-1.0	6162	12	14	-17	2
75	CC1CCN(Cc2c(C(=O)N/N=C/c3ccc(C(C)C)cc3)nnn2-c2nonc2N)CC1	13	x	4660	x	x	-9	x

Some values from the results shown:
In Sa ugtP lethal, #71 is listed with 18
In Mtb hypoxia rep growth, #51 is listed with -13
In RN4220 kill, #58 is listed with 1.8
In RN4220 kill, #68 is listed with 2.4

More entries follow.
no.	molecule	BJeLR lethal	RN4220 kill	Autofluor counter	Mtb hypoxia rep	Mtb hypoxia rep growth	PrP 5UTR inh	Sa ugtP lethal
76	CCCc1nnc(NC(=O)CN2C(=O)c3ccccc3S2(=O)=O)s1	2	6.3	9522	3	4	-29	1
77	COC(=O)c1ccccc1C(=O)N1CCCC(CNC(=O)c2ccc(F)cc2)C1 (stereo unspecified)	0	5.2	5867	11	-15	-5	8
78	COc1ccc(-c2ccccc2)cc1NCc1ccc(OC)c(OC)c1	3	-2.3	2607	-3	2	-19	10
79	COC(=O)C1=C(C)N=C2SCCC(=O)N2C1c1ccc(OC(=O)c2ccco2)cc1 (stereo unspecified)	-6	17	2398	-4	-2	-10	17
80	CC(C)(C)c1nnc2sc(SCC(=O)c3ccc4c(c3)OCCO4)nn2c1=O	-1	-9.2	3916	11	-1	-46	3
81	Cc1cccc([C@@H]2[C@@H]3C(=O)N(Cc4ccccc4)C(=O)[C@@H]3[C@]3(Cc4ccc(Cl)cc4)C(=O)N(c4ccccc4)C(=O)N23)c1	-4	x	3976	x	x	-2	x
82	CC(O)CNCc1ccccc1C(F)(F)F (stereo unspecified)	4	9.8	3899	11	10	-8	4
83	CCOC(=O)N1CCN(c2cc(NCCO)c([N+](=O)[O-])c3nonc23)CC1	2	16	4900	-6	6	-5	7

Compound activity as filed in PubChem.

No enrichment for hits (roughly 4% active in at least one column).
